# Screens (PubChem)
# S aureus helic: S. aureus DNA helicase inhibition. purified S. aureus helicase, fluorescence unwinding assay; about half of the hits fall short of the stated cut. inhibition, %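 (tested at about 80 µM)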. hit rate 0.05% among 120,000. AID 485395;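 active = both duplicates at 50% or more, or one of them with a favoured structure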;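 also: 0% = mean of negative control wells and 100% = mean of positive control wells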
# MgrA DNA FP: S. aureus MgrA-DNA binding modulation | fluorescence polarization | inhibition, %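 (about 10 µg/mL by stock and volumes)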 | hit rate 0.13% among 84,000 | AID 602314;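 active = above 50% in either of two replicates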;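 also: 0% = protein plus DNA without compound and 100% = DNA alone without protein; higher means less MgrA bound to DNA so lower polarization; one replicate is shown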
# * = called active by the depositor; x = not tested or not shown; & = joins results of further samples.
no.	SMILES	S aureus helic	MgrA DNA FP
1	COc1ccc2c(C=Nc3ccccc3)c(O)n(C)c(=O)c2c1	-36	0.8
2	CCOC(=O)C1=C(C)NC(=O)c2c(ccc(OC)c2OC)C1O (centres undefined)	5	x
3	COc1ccc(NC(C)=O)c(NC(=O)c2ccc(Cl)cc2Cl)c1	x	-3.0
4	C1CCC(Nc2nc(N3CCOCC3)nc(N3CCOCC3)n2)CC1	13	-1.4
5	CCc1cc2c(N3CCN(CC)CC3)nc(C)nc2s1	19	-3.3
6	CCOC(=O)c1ccc(NC(=O)CCCN2C(=O)/C(=C/c3ccc(OC)cc3)SC2=S)cc1	x	-0.3
7	CCOC(=O)c1c(CN2CCN(C)CC2)n(-c2ccccc2)c2ccc(O)cc12	-13	x
8	COc1ccc(C(=O)N/N=C2/SCC(=O)N2C)c(OC)c1	13	-0.1
9	COc1ccc(CNC(=O)CCSCc2ccccc2C)cc1	8	x
10	Cc1ccc(S(=O)(=O)CCN(CCS(=O)(=O)c2ccc(C)cc2)c2ncccn2)cc1	x	-2.4
11	c1cnc(SCc2csc(-c3ccc4c(c3)OCO4)n2)nc1	-12	2.0
12	COc1ccc(Nc2cc(C)c3ccccc3n2)cc1	6	-1.4
13	OC1CCCN(C2CCN(CCc3ccccc3)CC2)C1 (centres undefined)	-2	0.9
14	Cc1ccc(S(=O)(=O)N2C(=O)CCC2C(=O)N(Cc2nc(-c3ccccc3)no2)C(C)C)cc1 (centres undefined)	1	x
15	COc1ccc(-c2c(C#N)c(N)nc(OC)c2C#N)cc1	1	1.0
16	O=C(O)c1ccc2ccccc2c1Br	x	-1.2
17	CN(C)CCOC(=O)NC1CC(=O)N(c2ccc(F)cc2)C1 (centres undefined)	-4	x
18	Cc1ccc(O)c(CCc2ccc(O)cc2)n1	-6	-1.6
19	Cc1onc(-c2ccccc2)c1C(=O)O	8	x
20	COc1ccc(-c2nn(CN3CCOCC3)c(=S)n2C2CCCCC2)cc1	-12	x
21	Nc1nc(C(F)(F)F)cc(=O)[nH]1	x	0.3
22	COc1ccc(O)c(C2SCC(=O)N2Cc2ccccc2)c1 (centres undefined)	-14	-0.9
23	CCn1ncc(C2=NOC(C(=O)N3CCN(c4ccccc4)CC3)C2)c1C (centres undefined)	7	-1.6
24	O=S1(=O)C=C(N2CCOCC2)CC1	8	x
25	O=C1/C(=C/c2ccc(-c3ccccc3[N+](=O)[O-])o2)NC(=S)N1c1ccccc1	x	8.1

# Next section, overlapping the part above by 3 compounds.
no.	SMILES	S aureus helic	MgrA DNA FP
23	CCn1ncc(C2=NOC(C(=O)N3CCN(c4ccccc4)CC3)C2)c1C (centres undefined)	7	-1.6
24	O=S1(=O)C=C(N2CCOCC2)CC1	8	x
25	O=C1/C(=C/c2ccc(-c3ccccc3[N+](=O)[O-])o2)NC(=S)N1c1ccccc1	x	8.1
26	O=C(O)CN(Cc1ccccc1)S(=O)(=O)c1ccccc1	4	x
27	NC1=NC(=O)/C(=C/c2cc(Br)ccc2OCc2ccccc2)S1	x	-0.9
28	Cc1ccc(C(C)(C)C)c(OCCC#N)c1	-4	x
29	CSCCC(=O)Nc1ccc(Oc2cccc(C)c2)cc1	-5	x
30	O=C(Nc1ccc(O)cc1)C1Cc2ccccc2CN1S(=O)(=O)c1cccs1 (centres undefined)	-17	x
31	O=C(C1CCC1)N1CCN(c2cc(C(F)(F)F)nc3ccccc23)CC1	x	0.2
32	O=C(O)CO/N=C/c1ccccc1	1	x
33	CC(Nc1ncnc2ccccc12)c1ccccc1 (centres undefined)	7	-1.6
34	CC(C(=O)NCc1ccc(F)cc1)n1sc2ccccc2c1=O (centres undefined)	24	x
35	Cc1cc(C)c2c(c1C(=O)O)CC(C)(C)C2=O	x	-1.5
36	COc1ccc(NC2=NC(C)(CO)CS2)cc1 (centres undefined)	x	-0.9
37	CCC(c1nnnn1Cc1ccccc1)N1CCN(c2cccc(C)c2C)CC1 (centres undefined)	-3	2.7
38	Nc1nccc(-c2ccc(Sc3ccccc3)cc2)n1	x	0.8
39	O=C(CN1CCN(c2cccc(Cl)c2)CC1)c1ccc(Cl)cc1	9	6.3
40	Cc1ccc(-c2csc3nnc(C(F)(F)F)n23)cc1	x	-2.4
41	Cc1ccc(-n2c(SCC(=O)NC3CC3)nc3ccccc3c2=O)c(C)c1	-19	0.3
42	CN(C(=O)c1cccc(C#N)c1)c1nnc(C2CCOC2)s1 (centres undefined)	-10	1.7
43	O=c1nccc(C(F)(F)C(F)(F)F)[nH]1	5	x
44	CCOC(=O)C1=C(C)NC(SCC(=O)O)=NC1c1ccccc1 (centres undefined)	12	-2.1
45	O=C(Nc1ccc(Cl)c(-c2nc3ncccc3o2)c1)c1ccc(-c2cccc([N+](=O)[O-])c2)o1	x	3.7
46	Cc1cc(OC(=O)c2ccccc2)n[nH]1	-1	x
47	CS(=O)c1sc(C(=O)OCc2ccccc2)c2c1C(=O)CC(C)(C)C2 (centres undefined)	x	13
48	Oc1ccc(Nc2nc(N3CCOCC3)c3ccccc3n2)cc1	16	-2.1
49	CC1=C(C(=O)OCc2ccco2)C(c2cc3c(cc2Br)OCO3)NC(=O)N1 (centres undefined)	x	0.7
50	COc1cccc2c1Oc1nc(-c3ccccc3)nc(SCC(=O)N(C)c3ccccc3)c1C2	9	-0.2

no.	SMILES	S aureus helic	MgrA DNA FP
51	C=C(C)CN=c1scc(-c2ccco2)n1/N=C/c1cccnc1	-2	x
52	O=C1Nc2ccccc2/C1=N/c1sc2c(c1C(=O)NCCc1ccccc1)CCCC2	17	-0.4
53	O=c1c(-c2cc(Br)cc3c2OCOC3)coc2ccccc12	-12	0.5
54	CC12CCC(C(=O)N3CCc4ccccc43)(CC1=O)C2(C)C (centres undefined)	-4	1.5
55	O=C(Cc1c(F)cccc1Cl)OCC(=O)c1ccc2c(c1)OCO2	-16	x
56	COc1ccc(-c2cc(=O)c3c(O)cc(O)cc3o2)cc1	x	2.2&2.4
57	Cc1cc(Cn2cnc3ccccc3c2=O)no1	16	x
58	COc1cc2ncnc(Sc3ccc(Cl)cc3)c2cc1OC	x	2.5
59	O=C(c1ccc(O)cc1)N1N=CCC1(O)C(F)(F)F (centres undefined)	-4	x
60	O=C(CSc1ccc(Cl)cc1)Nc1ccc(F)cc1	x	-3.2
61	C=CCC1(Nc2ccccc2)CCCCC1	0	-5.1
62	CC(NC(=O)c1ccco1)C(=O)NCc1ccccc1CN(C)C (centres undefined)	7	x
63	O=C(O)c1ccccc1SC1CC(=O)N(c2ccccc2)C1=O (centres undefined)	10	x
64	CN(Cc1ccccc1)C(=O)CNc1cccc(C#N)c1	1	2.5
65	CCOc1ccc(C(=O)C(C)Sc2nnnn2-c2ccc(OC)cc2)cc1 (centres undefined)	29*	x
66	O=C(Nc1ccncc1)c1ccc(C(=O)c2ccccc2)cc1	-18	-0.5
67	CCn1c(=N)n(CC(O)c2cccs2)c2ccccc21 (centres undefined)	5	x
68	O=C(CC(c1ccccc1)c1ccccc1)NCc1ccco1	3	6.9
69	Cc1cc(N2CCOCC2)nc(SCC(=O)N2CCCC2)n1	15	x
70	COc1ccc(CCN2C(=O)CN=C2Nc2ccc(F)cc2)cc1OC	4	-0.1
71	CC(C(=O)NCc1ccc2c(c1)OCO2)n1ccc2cc(S(=O)(=O)N3CCCCCC3)ccc21 (centres undefined)	-20	x
72	O=C(O)c1cccnc1Sc1ccccc1	x	-0.2
73	Cc1onc(-c2c(Cl)cccc2Cl)c1C(=O)NCc1csc2ccccc12	x	1.0
74	Cc1cc(-c2csc(N)n2)c(C)s1	23	x
75	Cc1cc(C)c(NC(=O)CSc2nc3c(c(-c4ccco4)c2C#N)CCCC3)c(C)c1	-33	x

no.	SMILES	S aureus helic	MgrA DNA FP
76	COc1cccc(-c2n[nH]c3c2C(c2ccccc2)NC3=O)c1 (centres undefined)	-37	x
77	O=C(CSc1ccc(Cl)cc1)N1CCCC1	4	x
78	COc1ccc(CCn2c(C)cc(C(=O)COC(=O)c3cccc(-n4cnnn4)c3)c2C)cc1	4	x
79	Cc1ccc(C(=O)Cn2cnc3c2c(=O)n(C)c(=O)n3C)cc1	-6	7.3
80	CC(C)N(C(=O)Cc1c(O)c2ccccc2[nH]c1=O)C(C)C	-3	0.7
81	Cc1cc2c(=O)n(Cc3ccco3)c(SCC(=O)c3cccs3)nc2s1	9	-4.5
82	CCOc1ccccc1NC(=O)CSc1nc(O)cc(=O)n1C1CCCC1	-10	x
83	COc1cc2c(cc1OC)/C(=C/N(C)C)C(=O)OC2	x	0.9
84	Cc1cnc(N(C(=O)c2c(-c3ccccc3)noc2C)C(=O)c2c(-c3ccccc3)noc2C)c(C)n1	x	-1.4
85	CCCCC12CN3CCN(CC(C3)C1=N/N=C1\C3CN4CCN(C3)CC1(CCCC)C4)C2	9	1.8
86	Cc1cc(C(=O)NC2CCSc3ccccc32)no1 (centres undefined)	15	x
87	CC(=O)Oc1c(Br)c(=O)[nH]c2ccccc12	6	x
88	COc1cccc(-n2c(SC3CCOC3=O)nc3ccccc3c2=O)c1 (centres undefined)	8	x
89	Nc1ccc(OCC(=O)N2CCOCC2)cc1	9	-1.9
90	CCC1CCCCN1C(=O)c1cc2cc(OC)ccc2oc1=O (centres undefined)	8	4.9
91	O=C(NCc1ccc2c(c1)OCO2)c1ccc2c(c1)OCO2	6	x
92	CC(C)=CC(=O)Nc1nc2ccc(C)cc2s1	-1	5.3
93	O=C(NC1CCCC1)C1CCN(C(=O)c2sccc2-n2cccc2)CC1	10	0.3
94	O=C(Cn1cnc2c(nnn2-c2cccc(Cl)c2)c1=O)NCC1CCCO1 (centres undefined)	14	3.6
95	Clc1cccc(N=NN2CCOCC2)c1Cl	x	-2.7
96	CCOC(=O)c1ccc(NC(=O)CCN2N=C(c3ccccc3)CCC2=O)cc1	-7	x
97	O=C(O)CSCCc1ccccc1	x	-2.3
98	CSc1s[nH]c(=O)c1C#N	-8	-6.6
99	Cc1cc2cc(CNC(=O)CC(C)(C)C)ccc2[nH]1	4	x
100	O=C(NCc1ccc(Cl)cc1)c1ccc2c(c1)[nH]c(=S)n1c3ccccc3nc21	14	-1.1

# 4 entries picked at random from the list so far, as already listed:
no.	SMILES	S aureus helic	MgrA DNA FP
87	CC(=O)Oc1c(Br)c(=O)[nH]c2ccccc12	6	x
100	O=C(NCc1ccc(Cl)cc1)c1ccc2c(c1)[nH]c(=S)n1c3ccccc3nc21	14	-1.1
95	Clc1cccc(N=NN2CCOCC2)c1Cl	x	-2.7
79	Cc1ccc(C(=O)Cn2cnc3c2c(=O)n(C)c(=O)n3C)cc1	-6	7.3

# Remaining list, next part.
no.	SMILES	S aureus helic	MgrA DNA FP
101	O=C1Nc2ccccc2S/C1=C/c1ccc(C(=O)N2CCC3(CC2)OCCO3)cc1	8	x
102	CCCC(CC(=O)N1CCN(c2ccccc2Cl)CC1)n1ccnc1 (centres undefined)	10	x
103	O=C(COc1coc(CN2CCc3ccccc32)cc1=O)NC1CCCC1	28	x
104	Cc1nnsc1C(=O)Nc1ccc2c(c1)OCCO2	x	-2.0
105	C/C(N)=C(/C#N)C(=O)CSc1cc(C)c(C#N)c2nc3ccccc3n12	-11	x
106	c1ccc(-c2nnc(C3CC3)nc2-c2ccccc2)cc1	-2	x
107	CC(=O)Nc1ccccc1C(=NC1CCCCC1)C(=O)NC1CCCCC1	-16	0.9
108	CCN1CCc2nc(SCC(=O)Nc3ccc(OC)cc3)c(C#N)cc2C1	-8	x
109	CN1CCC(N(C)C(=O)C23CC4CC(CC(C4)C2)C3)CC1	-24	-1.9
110	Cn1nc(C(C)(C)C)cc1N	x	-3.0
111	CC(C)c1ccc(NC(=O)NC(=O)c2ncon2)cc1	18	x
112	CCOC(=O)c1cc(-c2csc(CS(=O)(=O)Cc3cccc(C(F)(F)F)c3)n2)on1	11	x
113	CSc1nc(N)nc(-c2cccs2)n1	x	-1.3
114	CC1CCN(C(=O)/C=C/c2ccc3c(c2)OCO3)CC1	12	0.0
115	FC(F)(F)C1NCCc2c1[nH]c1ccccc21 (centres undefined)	x	-1.1
116	CCCCn1nnc2sc3c(c2c1=O)CCCC3	-11	x
117	N#C/C(=C\c1cc2ccccc2o1)S(=O)(=O)c1ccccn1	x	-0.3
118	Cc1ccccc1CN1CCN(CC(=O)NCCc2ccc(Cl)cc2)C1=O	6	x
119	O=C1CCCC/C1=C/NCc1ccccc1	9	-2.0
120	CC(C)(C)NC(=O)N1CCC(C(N)=O)CC1	8	-0.3
121	O=[N+]([O-])c1ccc(-c2noc(-c3cccs3)n2)cc1	x	-2.8
122	CC(C)(C)C1CCC(C(=O)OCC(=O)c2ccc[nH]2)CC1 (centres undefined)	9	x
123	CN(C)c1ccc(-c2nnc(-c3ccc(Cl)cc3)o2)cc1	2	-0.2
124	CCOc1ncccc1C(=O)OCCN1C(=O)c2ccccc2C1=O	-3	x
125	CCCNC(=O)N1CCc2c([nH]c3ccccc23)C1c1ccccc1F (centres undefined)	-6	x

no.	SMILES	S aureus helic	MgrA DNA FP
126	COc1cccc(N(C(=O)c2ccco2)c2nc3ccccc3s2)c1	-4	x
127	N#Cc1c(Cl)cccc1Oc1ccc(-c2ccn[nH]2)cc1	x	-0.4
128	CCOc1ccccc1NC(=O)Cn1c(=O)oc2cc(S(=O)(=O)NC3CCCC3)ccc21	-22	x
129	Cc1cc(C)cc(C(=O)OCC(=O)c2cc(C)n(C)c2C)c1	17	x
130	COc1cc(-c2nc3ccccc3c(=O)n2NC(=O)c2cccnc2Cl)cc(OC)c1OC	x	-1.5
131	CCNCc1ccc(OCc2ccccc2)cc1	-9	x
132	Cc1ccc(NC(=O)NC(=O)CSc2nnc(C)n2C2CCCCC2)c(C)c1	-1	x
133	CCOC(=O)N1CCC(NC(=O)c2ccccc2C(=O)O)CC1	x	-5.8
134	CCc1ccc(NC(=O)N(C(C)C)C2CCN(C(C)=O)CC2)cc1	1	x
135	CCOc1ccccc1C1C(C#N)=C(SCC(=O)N2CCCC2)NC2=C1C(=O)CCC2 (centres undefined)	-12	x
136	COc1ccc(O)c(C=Nc2cc(C)ccn2)c1	3	x
137	CCc1cc(S(N)(=O)=O)cc(CC)c1NC(C)=O	x	-2.2

# This is a subset; the hit share may differ from the screen's.
